From PubChem BioAssay
Rango-impB inh – qHTS Assay for Inhibitors of Rango (Ran-regulated importin-beta cargo) - Importin beta complex formation; 340,000 tested, 0.031% active; AID 540263, 2011; Potency, µM (highest dose often 92.2 µM), inactives show at the top dose inhibition of complex formation; Importin subunit beta-1 (Homo sapiens), Q14974; Rango CFP/YFP FRET sensor + importin beta, 45 min; active = rising FRET ratio curve, often small or poorly fitted; inconclusive = mostly compound fluorescence or quenching in the first reads; inactive = flat curves in all reads;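 note: potency is the fitted concentration of half-maximal effect; 0% = DMSO wells and 100% = buffer wells lacking importin beta; nearly all actives have a fitted effect of over 15% in size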
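Inhibition scored from the CFP 486 nm/YFP 530 nm FRET ratio 45 min after adding 0.125 microM importin beta to 50 nM Rango biosensor preincubated 5 min with compound (room temperature, PBS with DTT, Tween-20, BSA). No-importin wells as positive control.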
GLA inh pH 4.5 – qHTS Assay for Inhibitors of Human alpha-Galactosidase at pH 4.5 | 230,000 tested, under 10 active | activity change, negative = inhibition, % at 105 µM | AID 1467, 2008 | purified enzyme, 4-MU-alpha-Gal fluorescence, pH 4.5; inconclusive = small, poorly fitted or top-dose-only inhibition, or a rising curve; inactive = flat fitted curve, though single readings scatter; no compound was filed as active;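 note: 0% = full activity with enzyme and -100% = basal without enzyme; dose as in the result columns while the protocol names 77 µM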
Target sequence (P06280 whole entry, looked up): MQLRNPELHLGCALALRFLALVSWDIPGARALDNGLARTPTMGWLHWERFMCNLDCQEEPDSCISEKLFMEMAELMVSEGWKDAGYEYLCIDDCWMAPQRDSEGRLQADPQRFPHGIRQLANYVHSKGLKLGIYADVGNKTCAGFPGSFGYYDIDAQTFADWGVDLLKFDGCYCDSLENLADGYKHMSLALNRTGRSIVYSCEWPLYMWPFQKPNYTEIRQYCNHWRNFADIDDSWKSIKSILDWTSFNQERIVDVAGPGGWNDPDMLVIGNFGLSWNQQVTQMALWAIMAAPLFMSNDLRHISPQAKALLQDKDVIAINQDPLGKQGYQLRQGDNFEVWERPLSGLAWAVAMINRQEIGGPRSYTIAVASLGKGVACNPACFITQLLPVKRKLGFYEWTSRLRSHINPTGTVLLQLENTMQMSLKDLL
miR-21 reporter – qHTS Assay for Modulators of miRNAs and/orActivators of miR-21. HeLa miR-21 FLuc reporter, luciferase, 48 h. Potency, µM (top dose mostly 38.3 µM), for the others: at the top dose reporter change, positive = more light. 340,000 tested, under 10 active; active = well fitted rising curve with a large enough effect; inconclusive = small, poorly fitted or top-dose-only effect; inactive = no such curve, though single readings can be large or run the other way;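 note: % of control where 0% means no effect; miR-21 action dims this reporter so a rising signal means less miR-21 action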
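HeLa miR-21-FLuc reporter line, endogenous miR-21; 2000 cells/well in DMEM/10% FBS; compound titration up to ~40uM final, 48 h, 37 degree Celsius; luciferase detection reagent, 15 min lysis, CCD luminescence.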
Rango dissoc inh – qHTS Assay for Inhibitors of RanGTP induced Rango (Ran-regulated importin-beta cargo) - Importin beta complex dissociation; Snurportin-1 (Homo sapiens) + GTP-binding nuclear protein Ran (Homo sapiens) + Importin …; Biochemical FRET Rango-importin beta, RanGTP-induced dissociation; Potency, µM (series often up to 46.1 µM), for inactives: top-dose activity change, negative = inhibition; 340,000 tested, 0.071% active; AID 540253, 2011; active means falling FRET ratio curve, often poorly fitted, with flat reads before Ran was added; inconclusive means other falling curves, or compound fluorescence or quenching; inactive means flat or rising ratio curve;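 note: potency is the fitted concentration of half-maximal effect; % of control where 0% means no effect; nearly all actives have a fitted effect of over 45% in size; -100% = wells without RanGTP and RCC1; the record marks most hits as doubtful in a second field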
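Rango (0.1 uM)–importin beta (0.25 uM) complex; RanGTP-RCC1 trigger; 45 min RT; CFP/YFP FRET read.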
* hit, by the source's call; ? = inconclusive; . = no result given.

entry	Molecule	Rango-impB inh	GLA inh pH 4.5
1	Cc1cc2ccccn2c1C(=O)Nc1ccc(Cl)cc1	-2.4%	4.3
2	COc1cc(/C=N/N=C(/C(=O)c2ccccc2)c2ccccc2)cc(OC)c1O	-1.4%	-8.8
3	Cc1cc(C(=O)COc2ccccc2C#N)c(C)n1C1CC1	-3.3%	.
4	CC(=O)Nc1ccc(S(=O)(=O)N(C)c2ccc(OCC(=O)NCCc3ccccc3F)cc2)cc1	-1.4%	.
5	CCOc1ccccc1NC(=O)C1CCN(S(=O)(=O)c2ccc(OC)c(OC)c2)CC1	-3.5%	12.9
6	O=C(NCC1CCCO1)c1ccc2c(c1)C(=O)N(c1cccc([N+](=O)[O-])c1)C2=O (configuration not stated)	0.1%	.
7	CN(C)/C=N/C(=S)Nc1ccc(Br)cc1F	-1.5%	-3.9
8	CCN(CC)C(=O)Cn1cc(S(=O)(=O)CC(=O)NCCc2ccccc2)c2ccccc21	-0.9%	.
9	CCOc1ccccc1/C=N/NC(=O)c1cccc(S(=O)(=O)N(CC)CC)c1	-0.7%	9.2
10	Cc1ccc2c(C)c(C(=O)N3CCCCC3CO)oc2c1C (configuration not stated)	-4.3%	.

entry	miR-21 reporter	Rango dissoc inh
1	-36.1%	-1.7%
2	10.2%	9.0%
3	.	8.5%
4	.	10.6%
5	-12.9%	-5.3%
6	2.4%	5.9%
7	-47.4%	0.4%
8	-0.5%	0.0%
9	0.0%	13.6%
10	-53.4%	-19.4%

Following part:
entry	Molecule	Rango-impB inh	GLA inh pH 4.5
11	COc1cc(CC(=O)OCC(=O)Nc2cc([N+](=O)[O-])ccc2F)cc(OC)c1OC	-3.7%	5.9
12	CC(C)C(=O)NNS(=O)(=O)c1ccccc1[N+](=O)[O-]	1.9%	-1.4
13	COC(=O)c1[nH]c2ccc(F)cc2c1NS(=O)(=O)c1ccc(F)c(C)c1	-2.8%	1.1
14	CCSC1(SCC)N=C(N)C2(C#N)C(c3ccc(OC)c(OC)c3OC)C12C#N (configuration not stated)	-1.1%	-0.4
15	COc1cc(C)nc(Oc2ccc(/C=N/O)cc2)n1	3.5%	4.3
16	O=C(NCc1cccnc1)c1nc(-c2ccccc2)n(-c2ccccc2)n1	-2.4%	.
17	O=C(O)c1ccc2c(c1)C(=O)N(c1ccc(Cl)cn1)C2=O	3.3%	9.5
18	Cc1ccc(SCCC(=O)OC(C)C(=O)Nc2ccccc2)cc1 (configuration not stated)	2.3%	.
19	Cn1ccnc1SCC(=O)NC1CCCC1	-5.7%	.
20	N/C(=N\OC(=O)Cc1ccc(-c2ccccc2)cc1)c1ccncc1	-3.6%	-7.9

entry	miR-21 reporter	Rango dissoc inh
11	4.4%	22.5%
12	-6.8%	10.2%
13	5.2%	-9.9%
14	?	-11.4%
15	-42.7%	10.2%
16	-7.3%	2.6%
17	-0.6%	0.6%
18	.	-13.8%
19	4.6%	6.2%
20	-1.8%	-4.6%

2 compounds drawn at random from the list so far, as already listed:
entry	Molecule	Rango-impB inh	GLA inh pH 4.5
13	COC(=O)c1[nH]c2ccc(F)cc2c1NS(=O)(=O)c1ccc(F)c(C)c1	-2.8%	1.1
16	O=C(NCc1cccnc1)c1nc(-c2ccccc2)n(-c2ccccc2)n1	-2.4%	.

entry	miR-21 reporter	Rango dissoc inh
13	5.2%	-9.9%
16	-7.3%	2.6%

(next part)
entry	Molecule	Rango-impB inh	GLA inh pH 4.5
21	CS(=O)(=O)c1ccccc1-c1csc(N2CCC(C(N)=O)CC2)n1	-0.2%	.
22	CCOc1ccccc1C(=O)OCC(=O)Nc1nnc(-c2ccccc2)o1	3.4%	.
23	O=C1CC2(CCCCC2)Oc2ccccc21	2.3%	.
24	Cc1cccc(N2CCN(C(=O)COc3cc(=O)n(C)c4ccccc34)CC2)c1C	0.2%	2.8
25	CCN(CC)CCN(Cc1cc2ccc(C)cc2[nH]c1=O)C(=S)Nc1ccccc1C(=O)OC	0.4%	-8.5
26	COc1ccccc1CNC(=O)CCC(=O)N1Cc2cccc(OC)c2Oc2ncccc21	0.9%	.
27	COc1ccc(CCNC(=O)C(C)OC(=O)c2nsc(Cl)c2Cl)cc1OC (configuration not stated)	-0.1%	.
28	CC(CN1CCCCC1)OC(=O)CCc1ccccc1 (configuration not stated)	-1.3%	-1.2
29	CCCn1c(-c2cccnc2Cl)nc2cc(Cl)c(Cl)cc21	3.0%	-5.2
30	NC(=O)C1CCN(C(=O)c2ccc(-c3ccccc3)cc2)CC1	2.8%	5.1

entry	miR-21 reporter	Rango dissoc inh
21	.	23.6%
22	.	13.3%
23	.	24.0%
24	5.3%	-5.2%
25	8.3%	-9.0%
26	0.6%	-10.6%
27	-0.8%	2.7%
28	2.0%	1.2%
29	2.6%	15.3%
30	-8.0%	8.2%

Arranged by the number under GLA inh pH 4.5 (high to low): 6 of the compounds above.
entry	Molecule	Rango-impB inh	GLA inh pH 4.5
9	CCOc1ccccc1/C=N/NC(=O)c1cccc(S(=O)(=O)N(CC)CC)c1	-0.7%	9.2
30	NC(=O)C1CCN(C(=O)c2ccc(-c3ccccc3)cc2)CC1	2.8%	5.1
24	Cc1cccc(N2CCN(C(=O)COc3cc(=O)n(C)c4ccccc34)CC2)c1C	0.2%	2.8
12	CC(C)C(=O)NNS(=O)(=O)c1ccccc1[N+](=O)[O-]	1.9%	-1.4
7	CN(C)/C=N/C(=S)Nc1ccc(Br)cc1F	-1.5%	-3.9
20	N/C(=N\OC(=O)Cc1ccc(-c2ccccc2)cc1)c1ccncc1	-3.6%	-7.9

entry	miR-21 reporter	Rango dissoc inh
9	0.0%	13.6%
30	-8.0%	8.2%
24	5.3%	-5.2%
12	-6.8%	10.2%
7	-47.4%	0.4%
20	-1.8%	-4.6%

Following part:
entry	Molecule	Rango-impB inh	GLA inh pH 4.5
31	CCn1c(CSCc2ccc(C)cc2)nnc1SCC(=O)N1CCN(c2ccccc2)CC1	-0.9%	-0.7
32	CN(C)C=NCCn1c(N2CCOCC2)nc2c1c(=O)n(C)c(=O)n2C	0.4%	-5.5
33	O=C(CN1C(=O)/C(=C\c2ccccc2F)SC1=S)Nc1nc2ccccc2s1	?	-0.3
34	CN(Cc1ccccc1)C(=O)COc1ccccc1Cl	0.0%	.
35	COc1ccc(SC[C@H](CC(C)C)N2CCN(CCc3ccccc3)CCC2=O)cc1	?	-8.7
36	CC(=O)NC1(c2ccccc2)CCN(CC(=O)N2CCC(C)CC2)CC1	11.6%	-6.8
37	CC1(C)CC(=O)C=C(Nc2ccc(F)cc2)C1	-3.6%	5.6
38	COc1ccc(C2NC(C(=O)O)CS2)cc1COCC(F)(F)F (configuration not stated)	6.1%	1.4
39	O=C(Nc1ccc2c(c1)OCO2)c1c[nH]c(=O)n(-c2ccc(F)cc2)c1=O	2.5%	.
40	CCC(C)(C)NC(=O)c1cc(OC)c(OC)cc1[N+](=O)[O-]	-2.5%	-10.4

entry	miR-21 reporter	Rango dissoc inh
31	18.4%	-11.3%
32	-0.7%	1.0%
33	-14.1%	?
34	-18.4%	1.2%
35	14.2%	8.0%
36	0.5%	17.3%
37	0.4%	0.6%
38	-1.2%	10.2%
39	-18.0%	-3.1%
40	4.3%	-16.1%

Carrying on.
entry	Molecule	Rango-impB inh	GLA inh pH 4.5
41	O=C(CSc1nc2c(c(=O)n1-c1ccc(Cl)cc1)SCC2)N1CCOCC1	-2.1%	0.3
42	Cc1cc(C)c(C(=O)OCC(=O)NC(=O)c2ccccc2)c(C)c1	0.5%	.
43	Cc1nnc(NC(=O)CSc2ccc(-c3ccco3)nn2)s1	-0.6%	1.7
44	O=C(c1ccc(Cl)c(S(=O)(=O)N2CCCC2)c1)N1CCCCC1	-2.0%	.
45	COC(=O)/C(=C1/Oc2ccc(C(C)(C)C)cc2S1)C(F)(F)F	3.1%	-1.4
46	CCc1ncc(CN2CCCC(C(=O)Nc3ccc(-c4cscn4)cc3)C2)cn1 (configuration not stated)	-2.2%	.
47	CC12CCC(C(=O)Nc3ccccc3)(C(Br)C1=O)C2(C)C (configuration not stated)	-0.4%	3.9
48	Cc1ccc(C(=O)Nc2cccc(C(F)(F)F)c2)cc1NC(=O)c1nccnc1N	?	4.1
49	CCC(CO)Oc1cc(NC(=O)c2ccccc2N)c2ncn(C(C)C)c2c1 (configuration not stated)	0.3%	.
50	Cc1ccc(NC(=O)CCNC(=O)c2ccc(Cl)cc2)cc1F	0.2%	2.0

entry	miR-21 reporter	Rango dissoc inh
41	-2.2%	16.6%
42	.	4.2%
43	0.9%	2.7%
44	-5.3%	-4.1%
45	-17.5%	0.7%
46	-6.3%	-10.8%
47	-5.2%	4.5%
48	0.2%	?
49	.	-22.6%
50	-20.9%	28.8%

(cont.)
entry	Molecule	Rango-impB inh	GLA inh pH 4.5
51	CCc1nc(NCc2cccnc2)c2oc3ccccc3c2n1	0.7%	-7.6
52	CC1(C)C(=O)Nc2ccccc2N1C(=O)COC(=O)c1cccnc1Cl	3.3%	.
53	COc1ccc(CCNS(=O)(=O)c2c(N)n(C)c(=O)n(C)c2=O)cc1OC	?	0.3
54	Cc1ccc(NS(=O)(=O)c2cccc3nsnc23)cc1	0.7%	0.9
55	CC(=O)c1c(C)[nH]c(C(=O)COC(=O)c2ccc3c(=O)n4c(nc3c2)CCC4)c1C	-0.5%	4.7
56	O=S1(=O)CSCS(=O)(=O)C1	-0.2%	.
57	CCc1ccc(C(=O)NNC(=O)[C@H](C)NC(=O)c2ccco2)cc1	-0.7%	.
58	CN(CC(=O)Nc1c(F)cccc1F)Cc1cccs1	1.4%	.
59	CN1CCN(C(=O)C2CC(=O)N(c3ccc(F)c(Cl)c3)C2)CC1 (configuration not stated)	0.2%	-3.0
60	CC(=O)c1ccc(NC(=O)c2ccc(C)c(Br)c2)cc1	2.0%	-5.2

entry	miR-21 reporter	Rango dissoc inh
51	-1.4%	-15.9%
52	.	-9.3%
53	-2.2%	20.2%
54	-8.8%	10.6%
55	2.6%	0.6%
56	.	7.2%
57	.	-2.5%
58	-5.8%	-9.6%
59	-2.0%	12.8%
60	-60.6%	3.0%

(cont.)
entry	Molecule	Rango-impB inh	GLA inh pH 4.5
61	CCOc1ccccc1-c1nc(CN(Cc2cnn(C)c2)C(C)C)c(C)o1	?	-10.8
62	COc1ccc(Cl)cc1NC(=O)CCNC(=O)Cn1ccc2ccccc2c1=O	2.0%	.
63	Cc1cc(NC(=O)CSc2nnc(C)n2-c2ccccc2C)no1	-0.4%	1.1
64	COc1ccc(S(=O)(=O)N2CCN(CC(=O)c3ccc(O)c(O)c3)CC2)cc1	-2.6%	.
65	O=C(CNc1cc(S(=O)(=O)N2CCOCC2)ccc1NCC1CCCO1)Nc1ccc(F)c(F)c1 (configuration not stated)	0.1%	.
66	O=C1c2ccccc2S(=O)(=O)N1Cc1cccc(S(=O)(=O)N2CCOCC2)c1	3.6%	2.3
67	COc1ccccc1NC(=O)CC1C(=O)Nc2ccccc2N1C(=O)c1ccccc1 (configuration not stated)	-1.8%	5.4
68	Cc1cc(C)c(C(=O)COC(=O)c2nn(C)c(=O)c3ccccc23)cc1C	-0.3%	.
69	Cc1ccc(NC(=O)NC2CCCCC2)c(C)c1	3.6%	-7.2
70	COc1ccccc1C(=O)Nc1ccc2c(c1)nc1n2CCSC1	1.0%	-2.7

entry	miR-21 reporter	Rango dissoc inh
61	0.0%	-10.7%
62	4.6%	-2.9%
63	0.9%	-2.1%
64	-2.2%	0.1%
65	-2.3%	-27.1%
66	-0.4%	4.2%
67	-2.0%	-1.9%
68	.	-18.1%
69	-11.4%	5.3%
70	-29.2%	-16.4%

Additional structures.
entry	Molecule	Rango-impB inh	GLA inh pH 4.5
71	COCCCNc1nc2nonc2nc1NCCSC	-2.0%	-0.5
72	NS(=O)(=O)c1ccc(NC(=S)Nc2ccc(OCc3ccccc3)cc2)cc1	-0.3%	5.6
73	COCC(C)n1c(SCC(=O)NC(=O)Cc2ccccc2)nc2ccccc2c1=O (configuration not stated)	4.0%	.
74	O=[N+]([O-])c1ccc(N2CCN(Cc3ccccc3)CC2)nc1	0.0%	-23.4

entry	miR-21 reporter	Rango dissoc inh
71	-1.0%	0.5%
72	-1.6%	-3.3%
73	.	?
74	5.2%	-3.7%

This is a subset, so the mix of outcomes need not match the whole.
